Compound activity deposited in PubChem BioAssay by Broad Institute.
FGF22 binding: binders of recombinant human FGF22 by thermal shift; hit rate 1.5% among 340,000; calls only at 9.99 µM; Q9HCT0; SYPRO orange fluorescence; percent of sucrose octasulfate shift, DMSO zero;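 active means melting point raised past a set limit in the mean and every replicate; three in four hits are not shown here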
Target sequence (Q9HCT0 whole entry, looked up): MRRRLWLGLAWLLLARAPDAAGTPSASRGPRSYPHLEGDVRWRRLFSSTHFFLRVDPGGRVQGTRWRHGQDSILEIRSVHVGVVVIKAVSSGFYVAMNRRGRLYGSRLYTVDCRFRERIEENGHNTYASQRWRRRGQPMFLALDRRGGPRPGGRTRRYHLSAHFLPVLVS
MLL AF4-AF9 inh: inhibitors of human MLL-AF4/AF9 interaction; P42568; AlphaScreen, biotin-AF4 peptide binding to FLAG-AF9; inhibition, % at 10 µM; hit rate 0.47% among 350,000; AID 651704;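 active means every replicate reaching a set inhibition limit, whatever the replicate mean, cut at about 25% in these data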;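 further: 0% = plate neutral control median and 100% = total signal loss; the record names both 10 and 1 µM as test concentration; the first replicate is given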
Target sequence (P42568 whole entry, looked up): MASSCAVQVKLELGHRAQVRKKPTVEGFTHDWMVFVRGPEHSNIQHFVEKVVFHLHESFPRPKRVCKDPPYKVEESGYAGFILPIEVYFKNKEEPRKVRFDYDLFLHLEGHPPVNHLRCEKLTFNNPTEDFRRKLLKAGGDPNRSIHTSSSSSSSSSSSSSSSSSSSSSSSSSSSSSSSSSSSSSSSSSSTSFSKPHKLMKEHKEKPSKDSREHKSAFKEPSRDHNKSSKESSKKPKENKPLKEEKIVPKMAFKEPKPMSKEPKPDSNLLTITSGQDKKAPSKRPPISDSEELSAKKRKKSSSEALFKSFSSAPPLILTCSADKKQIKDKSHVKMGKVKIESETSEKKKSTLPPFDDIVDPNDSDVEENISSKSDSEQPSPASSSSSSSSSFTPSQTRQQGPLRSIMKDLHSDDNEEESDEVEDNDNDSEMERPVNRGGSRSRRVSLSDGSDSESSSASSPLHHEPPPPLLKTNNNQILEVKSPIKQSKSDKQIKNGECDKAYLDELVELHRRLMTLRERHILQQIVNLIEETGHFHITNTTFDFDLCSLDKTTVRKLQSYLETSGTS
rRNA inh HTS: inhibitors of bacterial rRNA selective over humanized ribosomes | E. coli WT GFP vs humanized-ribosome RFP mutants, fluorescence, 24 h; hits give low values; DMSO median 0, no signal -100 | GFP signal change (wild-type ribosome), % (concentration not given with the values) | hit rate 1.6% among 350,000 | AID 720706;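 active means significant combined selectivity score with lowered wild-type GFP, culture density cut under 30%, mutant RFP and density less affected; inactive means any of these conditions unmet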; further: one replicate is shown; some compounds called inactive have numbers as strong as hits
rRNA inh HTS OD600: second read-out of rRNA inh HTS, no call of its own (marks repeat the call); OD600 change, %; measured here: OD600 growth;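 optical density of the mix in the first replicate; 0 = DMSO median and -100 = no signal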
rRNA inh HTS RFP: also measured in rRNA inh HTS; calls as there; RFP signal change, %; measured here: RFP humanized mutant strains;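 first replicate; 0 = DMSO median and -100 = no signal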
The depositor's hits bear a star; i = inactive; . = no result given; + = active, no number. Only part of the results is shown; count on the stated rates, not on these rows.

Order of results – rRNA inh HTS	rRNA inh HTS RFP	MLL AF4-AF9 inh	rRNA inh HTS OD600	FGF22 binding
COc1ccc(NC(=O)Nc2ccc3c(c2)C(=O)N([C@H](C)CO)C[C@H](C)[C@H](CN(C)C(=O)Nc2ccc(F)cc2)OCCCC[C@H](C)O3)cc1
→ 1	-1.7	-1.5	4	i
O=C(NC1CCC1)[C@@H]1[C@@H](CO)[C@@H]2Cn3c(ccc(C4=CCCC4)c3=O)[C@H]1N2C(=O)c1ccccc1
→ 0	-3.1	-19	-4	i
COc1ccc(CN(C)C[C@@H]2Oc3ccc(NC(=O)Nc4cccc5ccccc45)cc3C(=O)N([C@@H](C)CO)C[C@@H]2C)cc1
→ -1	8.1	4.0	-16	i
O=S(=O)(c1ccc(F)cc1)N1C[C@@H]2[C@H](c3ccccc31)[C@H](CO)N2Cc1ccc2c(c1)OCO2
→ -14	-1.5	3.6	-32	i
COc1ccccc1N1CCN(C(=S)NC(=O)c2ccc([N+](=O)[O-])cc2)CC1
→ -2	3.5	4.4	0	i
COCc1[nH]nc2c1C(c1ccc(F)cc1)N(c1ccccc1)C2=O (stereo not given)
→ -5	-1.8	-2.2	-7	.
O=C(C[C@H]1CC[C@@H]2[C@H](COC[C@H](O)CN2Cc2ccccc2F)O1)N[C@H]1CCN(Cc2ccccc2)C1
→ 0	-0.6	2.6	1	i
O=C([C@H]1[C@H](CO)[C@H]2Cn3c(ccc(C4=CCCCC4)c3=O)[C@@H]1N2Cc1nccs1)N1CCOCC1
→ 4	0.8	-11	10	i
CCCNC(=O)Nc1ccc2c(c1)OC[C@H](C)NC[C@@H](C)[C@H](OC)CN(C)C2=O
→ 1	2.1	-1.4	4	i
C=CCSC1=Nc2cc(OC)c(OC)cc2C2=NC(=O)CN12
→ -2	6.7	-2.0	1	i
O=C(c1ccncc1)N1CC2(C1)[C@@H](c1ccccc1)[C@@H](CO)N2Cc1ccccn1
→ 6	-0.8	-0.6	10	i
CC(=O)Nc1ccc(N2CCOCC2)c(S(=O)(=O)Nc2ccccc2Cl)c1
→ 1	-0.7	0.8	2	i
CCCNC(=O)C[C@@H]1CC[C@H]2[C@@H](COC[C@@H](O)CN2CC2CCCCC2)O1
→ 0	-2.5	-2.4	5	i
CC(=O)Nc1cc(-c2ccc(N(C)C)cc2)cn2c(-c3ccc(F)c(Cl)c3)cnc12
→ 31	17	1.7	0	i
CCCC(=O)OC[C@H]1CN(C2CCCC2)S(=O)(=O)c2c(F)cccc2O1
→ -6	1.5	-3.5	-6	i
O=Cc1cc(OCc2ccccc2)ccc1[B-](F)(F)F
→ -3	-2.3	-1.3	-20	+
CCc1cccc(-n2c(SCC(=O)c3c(N)n(C4CC4)c(=O)[nH]c3=O)nnc2N2CCOCC2)c1
→ -2	-2.8	-6.4	8	i
Cc1ccccc1Nc1nc(N)nc(COC(=O)[C@@H](NC(=O)c2ccco2)C(C)C)n1
→ 2	2.1	-7.0	-1	i
CCCCc1c(-c2ccccc2OC)ncn1CCc1ccc(OC)cc1
→ -62	-19	19	-78	i
COC(=O)c1ccccc1N=NNc1ccc([N+](=O)[O-])cc1
→ -4	-0.5	-0.5	4	i
Cc1cc(=O)c(C(=O)O)c(C)n1-c1ccccc1
→ 26	0.1	-4.4	18	i
CC(C)NC(=O)Nc1cccc2c1O[C@@H](CN(C)Cc1ccc(C(=O)O)cc1)[C@H](C)CN([C@H](C)CO)C2=O
→ 2	0.3	-2.2	4	i
Cc1noc(C)c1NC(=O)Nc1cccc2c1O[C@@H](CN(C)S(C)(=O)=O)[C@H](C)CN([C@H](C)CO)C2=O
→ 2	-0.8	-0.3	5	i
COCc1cn(CC[C@@H]2CC[C@H](NC(=O)CCN3CCCCC3)[C@@H](CO)O2)nn1
→ 1	4.0	-5.5	0	i
OC1c2c(F)cccc2N=C2CCCCCN21 (stereo not given)
→ 1	-3.5	-4.0	16	i
COc1cccc(CNC(=O)C[C@@H]2C=C[C@H](NC(=O)C3CCC3)[C@H](CO)O2)c1
→ 1	-2.6	-0.2	15	i
Cc1noc(C)c1NC(=O)N(C)C[C@@H]1Oc2ccc(NS(=O)(=O)c3ccc(Cl)cc3)cc2C(=O)N([C@@H](C)CO)C[C@@H]1C
→ -1	0.0	-1.3	-1	i
COC(=O)C(CCC(C(=O)OC)N1C(=O)c2ccccc2C1=O)N1C(=O)c2ccccc2C1=O (stereo not given)
→ -3	2.3	3.8	-3	i
Cc1ccc(NC(=O)CNc2ccccc2N2CCCC2=O)cc1S(=O)(=O)N1CCOCC1
→ 4	-3.5	1.7	0	i
CCN(CC)C(=O)c1cccc(-c2csc(C(O)c3ccc(F)cc3)n2)c1 (stereo not given)
→ -3	-5.6	-3.1	-12	i

Brought forward from above: 4 entries, followed by the next part.
Order of results – rRNA inh HTS	rRNA inh HTS RFP	MLL AF4-AF9 inh	rRNA inh HTS OD600	FGF22 binding
Cc1noc(C)c1NC(=O)N(C)C[C@@H]1Oc2ccc(NS(=O)(=O)c3ccc(Cl)cc3)cc2C(=O)N([C@@H](C)CO)C[C@@H]1C
→ -1	0.0	-1.3	-1	i
COC(=O)C(CCC(C(=O)OC)N1C(=O)c2ccccc2C1=O)N1C(=O)c2ccccc2C1=O (stereo not given)
→ -3	2.3	3.8	-3	i
Cc1ccc(NC(=O)CNc2ccccc2N2CCCC2=O)cc1S(=O)(=O)N1CCOCC1
→ 4	-3.5	1.7	0	i
CCN(CC)C(=O)c1cccc(-c2csc(C(O)c3ccc(F)cc3)n2)c1 (stereo not given)
→ -3	-5.6	-3.1	-12	i
CCOc1ccc(S(=O)(=O)N2CCCCC2)cc1NC(=O)CCNC(=O)c1ccco1
→ 1	-0.2	-3.4	3	i
CC(C)CC(=O)Nc1ccc(C(=O)COC(=O)C2CC(=O)N(Cc3ccccc3)C2)cc1 (stereo not given)
→ 6	-2.2	5.9	14	i
CC(C)c1ccc(NC(=O)Nc2nc(C(N)CCc3ccccc3)cs2)cc1 (stereo not given)
→ -33	-9.0	19	-40	i
CO[C@H]1CN(C)C(=O)c2ccc(NS(=O)(=O)c3ccccc3)cc2OC[C@@H](C)N(C(=O)NC(C)C)C[C@@H]1C
→ 0	-0.6	-0.4	-2	i
COc1ccc2c3c(n(C)c2c1)[C@H](CO)N(C(=O)C1CCOCC1)CC31CCN(C(=O)Nc2cccc(F)c2)CC1
→ -4	2.4	1.2	3	i
CO[C@@H]1CN(C)C(=O)c2cc(NC(=O)C3CC3)ccc2OC[C@@H](C)NC[C@H]1C
→ 2	2.4	-1.2	10	i
COc1ccc(S(=O)(=O)N[C@H]2CC[C@@H](CCn3cc(-c4ccccc4F)nn3)O[C@H]2CO)cc1
→ -12	-0.4	2.1	-18	i
COc1ccc(-c2csc(C(C)(O)c3cccc(OC)c3)n2)cc1 (stereo not given)
→ -44	-10	3.2	-72	i
CC=Cc1ccc2n(c1=O)C[C@H]1[C@H](CO)[C@@H](C(=O)Nc3ccccc3)[C@@H]2N1C(=O)CC1CC1 (mixture of isomers)
→ -4	-1.0	-5.2	-3	i
COCC(=O)N(C)C[C@@H]1Oc2ncc(C#CC(C)(C)O)cc2C(=O)N([C@@H](C)CO)C[C@@H]1C
→ 0	-2.0	-3.6	4	i
COCC(=O)N(C)C[C@H]1Oc2ncc(C#CCC3CCCC3)cc2C(=O)N([C@H](C)CO)C[C@H]1C
→ 2	0.0	-6.9	2	i
CN(C)c1ccc2c(c1)[C@H]1C[C@H](CC(=O)NCc3ccc4c(c3)OCO4)O[C@@H](CO)[C@H]1O2
→ -2	-2.1	2.2	-2	i
CCC1CCCCN1S(=O)(=O)c1ccc(NC(=O)C2CC(=O)N(C(C)(C)C)C2)cc1 (stereo not given)
→ 6	-1.6	-1.0	-2	i
C[C@H](CO)N1C[C@H](C)[C@@H](CN(C)Cc2ccc(C(=O)O)cc2)OCCCC[C@H](C)Oc2ccc(NS(=O)(=O)c3ccc(Cl)cc3)cc2C1=O
→ 3	4.1	-0.3	15	i
C[C@@H]1CN([C@@H](C)CO)C(=O)c2cc(NC(=O)Nc3ccc(C(F)(F)F)cc3)ccc2O[C@H]1CN(C)C(=O)Nc1ccc(C(F)(F)F)cc1
→ -7	-3.5	-2.5	-4	i
C[C@@H]1CN([C@H](C)CO)C(=O)Cc2cc(NC(=O)Nc3ccc(C(F)(F)F)cc3)ccc2O[C@@H]1CN(C)Cc1ccc(-c2ccccc2)cc1
→ 1	0.4	-0.9	3	i
O=C(Nc1ccccc1F)N[C@@H]1CC[C@@H](CCNC(=O)C2CCCC2)O[C@@H]1CO
→ 0	-0.4	-1.5	7	i
N#C[C@H]1[C@@H](c2ccccc2C2=CCCC2)[C@H](CO)N1C(=O)Cc1ccncc1
→ -4	-0.3	-1.2	-29	i
COCCN(C[C@H]1N[C@H](CO)[C@H]1c1ccc(-c2ccc(F)cc2)cc1)C(C)=O
→ 1	-2.2	2.5	1	i
CCOC(=O)c1c(C)[nH]c(C)c1C(=O)COC(=O)COc1ccc(Cl)c(C)c1
→ -4	3.2	-0.7	-2	i
COCC#Cc1cnc2c(c1)C(=O)N([C@H](C)CO)C[C@@H](C)[C@@H](CN(C)C(=O)Nc1cc(F)ccc1F)O2
→ 7	-2.8	-2.6	1	i
C[C@@H]1CN([C@@H](C)CO)C(=O)Cc2cc(NC(=O)c3ccncc3)ccc2O[C@@H]1CN(C)Cc1ccc(C(F)(F)F)cc1
→ -7	3.1	-1.8	-14	i
COC(=O)C[C@H]1CC[C@H]2[C@H](COc3ccc(NC(=O)c4cnccn4)cc3C(=O)N2C)O1
→ 0	-3.3	-2.2	8	i
C[C@@H]1CN([C@@H](C)CO)C(=O)c2cc(C3=CCCCC3)cnc2O[C@@H]1CN(C)C(=O)Nc1ccccc1
→ -4	3.1	0.3	-3	i
CCN1[C@@H]2Cn3c(ccc(-c4ccccc4)c3=O)[C@H]1[C@@H](C(=O)NC1CCC1)[C@@H]2CO
→ -2	-0.1	-1.5	-3	i
C[C@H]1CN([C@@H](C)CO)C(=O)c2cc(NC(=O)CCCN(C)C)ccc2O[C@H]1CN(C)Cc1ccc(Cl)c(Cl)c1
→ -2	14	12	-2	i
CN1C[C@H]2[C@@H](c3ccccc31)[C@@H](CO)N2C(=O)Nc1ccccc1Cl
→ -1	-3.5	0.5	4	i
COC(=O)[C@]12CCCCC=C1N(Cc1ccc(Cl)cc1Cl)C(=O)[C@H](CC(=O)N1CCN(C(=O)C3CC3)CC1)C2
→ -37	6.6	3.9	-56	i
O=C(C[C@@H]1CC[C@@H](NC(=O)CCN2CCCCC2)[C@H](CO)O1)NCc1ccc(Cl)c(Cl)c1
→ 3	2.2	1.2	2	i
COc1ccc2c3c(n(C)c2c1)[C@@H](CO)N(CC1CC1)CC31CCN(C(=O)Nc2c(C)noc2C)CC1
→ 5	-2.0	0.8	19	i
COc1ccc(CN(C)C[C@H]2OCCCC[C@@H](C)Oc3ccc(NC(=O)CCC(F)(F)F)cc3C(=O)N([C@@H](C)CO)C[C@H]2C)cc1
→ 2	-1.3	-1.7	-8	i
COc1cccc(S(=O)(=O)N[C@H]2C=C[C@@H](CC(=O)NCc3ccc(F)cc3)O[C@H]2CO)c1
→ 1	-1.0	-6.2	3	i
C[C@@H]1CN([C@@H](C)CO)S(=O)(=O)c2ccc(-c3ccc(C(=O)N(C)C)cc3)cc2O[C@H]1CN(C)Cc1ccc2c(c1)OCO2
→ -5	-6.8	0.5	-20	i
C[C@H]1CN([C@@H](C)CO)C(=O)c2cc(-c3cccnc3)cnc2O[C@H]1CN(C)C(=O)Nc1ccc2c(c1)OCO2
→ 2	0.6	-0.7	5	i
C[C@H](O)C#Cc1ccc([C@H]2[C@@H](CO)N3CCCCN(C(=O)c4cccc(F)c4)C[C@H]23)cc1
→ 1	-4.1	-2.4	5	i
C[C@H]1CN([C@@H](C)CO)S(=O)(=O)c2ccc(-c3cccc(C#N)c3)cc2O[C@@H]1CN(C)C(=O)c1ccc(F)cc1
→ -16	1.0	0.8	-14	i
C[C@@H]1CN([C@H](C)CO)C(=O)c2cccc(NS(=O)(=O)c3cn(C)cn3)c2O[C@@H]1CN(C)Cc1ccc2c(c1)OCO2
→ 2	-1.6	2.8	4	i
Cc1cc(OC(C)C(=O)NC2CC(C)(C)NC(C)(C)C2)c2c(C)c(C)c(=O)oc2c1 (stereo not given)
→ 15	0.2	-3.6	16	i
C[C@@H]1CCCCO[C@@H](CN(C)C(=O)Nc2cccc3ccccc23)[C@H](C)CN([C@@H](C)CO)C(=O)c2cc(NC(=O)C3CCCCC3)ccc2O1
→ 5	3.0	-3.2	4	i
Cc1cc(C(=O)Nc2cccc3c2O[C@@H](CN(C)C(=O)Nc2ccc(C(F)(F)F)cc2)[C@H](C)CN([C@H](C)CO)C3=O)n(C)n1
→ -3	-2.7	-4.5	12	i
CNC(=O)C[C@@H]1CC[C@@H]2[C@@H](COc3ccc(NC(=O)Nc4ccc(C)cc4)cc3C(=O)N2C)O1
→ 2	-1.0	-1.4	-7	i

FGF22 binding, what is marked active above
Order of results – rRNA inh HTS	rRNA inh HTS RFP	MLL AF4-AF9 inh	rRNA inh HTS OD600	FGF22 binding
O=Cc1cc(OCc2ccccc2)ccc1[B-](F)(F)F
→ -3	-2.3	-1.3	-20	+
